hNpr1 antagonist: Natriuretic polypeptide receptor (hNpr1) antagonism - Primary qHTS; Atrial natriuretic peptide receptor 1 (Homo sapiens), P16066; HEK293 hNpr1 GloSensor cGMP, ANP-stimulated luminescence; Potency, µM (series often up to 46.3 µM), for inactives: at the top dose activity change, negative = inhibition, actives largely listed as inhibitors; actives 1.6% (n = 76,000); active = well fitted inhibition curve with a large enough effect; inconclusive = small, poorly fitted or top-dose-only effect; inactive = no such curve, though single readings can be large or run the other way;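 note: nearly all actives have a fitted effect of over 60% in size; nearly all hits also lower the signal before the agonist is added; a reference antagonist and vehicle were the controls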
Target sequence (P16066 whole entry, looked up): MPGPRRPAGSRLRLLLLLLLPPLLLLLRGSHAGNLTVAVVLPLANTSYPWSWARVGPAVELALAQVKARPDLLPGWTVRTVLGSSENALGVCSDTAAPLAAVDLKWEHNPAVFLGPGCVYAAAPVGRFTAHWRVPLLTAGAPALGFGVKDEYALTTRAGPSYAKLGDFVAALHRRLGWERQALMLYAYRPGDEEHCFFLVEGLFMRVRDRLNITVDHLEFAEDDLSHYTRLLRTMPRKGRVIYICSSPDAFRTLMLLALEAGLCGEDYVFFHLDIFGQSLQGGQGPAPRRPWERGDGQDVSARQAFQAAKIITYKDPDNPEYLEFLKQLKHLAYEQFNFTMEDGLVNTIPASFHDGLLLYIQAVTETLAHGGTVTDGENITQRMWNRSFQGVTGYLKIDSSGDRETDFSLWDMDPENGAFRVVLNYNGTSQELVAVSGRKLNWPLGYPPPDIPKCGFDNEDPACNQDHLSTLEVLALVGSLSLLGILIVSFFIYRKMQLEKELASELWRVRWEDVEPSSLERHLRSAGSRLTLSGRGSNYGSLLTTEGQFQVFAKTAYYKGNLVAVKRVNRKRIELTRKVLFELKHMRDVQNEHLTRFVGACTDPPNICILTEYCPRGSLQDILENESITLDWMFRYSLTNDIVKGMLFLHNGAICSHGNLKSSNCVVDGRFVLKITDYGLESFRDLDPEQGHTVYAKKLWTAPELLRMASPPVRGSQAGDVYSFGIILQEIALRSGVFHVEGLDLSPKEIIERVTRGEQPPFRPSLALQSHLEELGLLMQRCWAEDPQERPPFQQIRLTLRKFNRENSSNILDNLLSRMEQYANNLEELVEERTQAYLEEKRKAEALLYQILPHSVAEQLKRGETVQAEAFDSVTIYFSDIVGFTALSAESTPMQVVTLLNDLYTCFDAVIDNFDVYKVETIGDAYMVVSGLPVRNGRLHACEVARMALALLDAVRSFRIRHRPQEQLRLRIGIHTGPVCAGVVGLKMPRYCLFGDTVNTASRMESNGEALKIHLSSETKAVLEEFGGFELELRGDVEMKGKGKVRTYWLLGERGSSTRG
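Compound pre-incubated 30 min at room temperature on GloSensor-loaded HEK293 cells stably carrying hNpr1 and the pGS-40F cGMP biosensor. Stimulation uses hNppA at 0.1 nM final; luminescence is taken at baseline and 20 min post-agonist.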
Numbers without * were called inactive; ? = inconclusive; [ ] = remark or other dose. % is set by controls: 0 for no effect and ±100 for the full control effect; potency is the fitted concentration of half-maximal effect.

SMILES | hNpr1 antagonist
O=C(NCc1ccsc1)C1CN(c2cccc(Cl)c2)C(=O)N1 (configuration not stated) | -3%[70.6 µM]
Cn1cccc1CN1CCCC2(CC(Cc3ccccc3)=NO2)C1 (configuration not stated) | -5%[70.6 µM]
CC(=O)N1CCC(N2CC[C@@H](CO)N(C)c3nc(C)ccc3C2)CC1 | 5%[70.6 µM]
COc1cccc(CN2CCC(Cc3ncc(C)n3CC3CC3)C2)c1OC (configuration not stated) | -4%
O=C(c1ccccc1OC1CCN(Cc2ccc(-n3cccn3)cc2)CC1)N1CCCCC1 | 1%
O=C1c2cnc(-c3cccc(F)c3)nc2OCCN1c1ccccc1 | -29%[70.6 µM]
COc1ccc(C(=O)N2CCC(Cc3nc(-c4ccc(F)cc4)no3)CC2)c(C)c1 | 1.4µM*
Cc1ccc(-c2cc3c(=O)n(CCNC(=O)Cc4cccc(F)c4)ccn3n2)c(C)c1 | -27%
O=C1Cc2c(-c3ccccc3OCc3ccccc3)n[nH]c2CN1CCOc1ccccc1 | -18%
O=C(NC1CCCC1)C1(CCO)CCN(Cc2ccccc2)C1 (configuration not stated) | 3%
O=c1[nH]c(N2CCOCC2)nc2c1CCN(Cc1cccc(C(F)(F)F)c1)CC2 | 3%
COCC1CN(C(=O)c2ccnn2C)CC12CCOCC2 (configuration not stated) | 1%
CC(c1cccs1)N(C)Cc1cccc2ccccc12 (configuration not stated) | 19%[70.6 µM]
Clc1cc(NCc2ccccc2Cl)n2nccc2n1 | ?
c1ccc(N2CCCC2)c(-c2nc(C3CCOC3)no2)c1 (configuration not stated) | 2%
CCOc1ccc(CN2CCc3nn(C)c(=O)n3CC2)cc1OC | 1%
CC1=C(C(=O)N2CCOC(CCCc3ccccc3)C2)OCCO1 (configuration not stated) | 0%
CCn1c2c(c(=O)n1-c1ccccc1)CCN(C(=O)c1ccnn1C)C2 | -3%[70.6 µM]
COC[C@@H]1CN(Cc2cn[nH]c2-c2ccccc2)C[C@H]1c1nc(C)no1 | 1%
COc1ncccc1-c1nccn2c(C3CN(C(=O)c4cc5ccccc5[nH]4)C3)ncc12 | -24%[70.6 µM]
CC(=O)Nc1ccccc1NC(=O)CN1CCCC(C(N)=O)C1 (configuration not stated) | 4%
O=C(c1ccccc1)N1CCc2nnc(C3CC3)n2CC1 | -1%
O=C(CCNc1c(-c2ccc(F)cc2)nc2cnccn12)N1CCCCC1 | -11%
CC(C)NC(=O)c1ccnc(-c2cc(NC3CCCC3)nc3[nH]ccc23)c1 | -4%
CN1CCCN(C(=O)Cc2cccs2)c2ccccc21 | -7%

Continued:
SMILES | hNpr1 antagonist
Cc1ccc(CNC(=O)[C@@]23CCCC[C@H]2N(C)C(=O)CC3)cc1 | 3%
O=C(O)CC1(CC(=O)N2CC[C@H]3COC(=O)N3c3cc(F)ccc3C2)CCCC1 | -5%[70.6 µM]
Cc1ccc(N2CCC(NC(=O)c3ccc(F)cc3Cl)C2=O)cc1C (configuration not stated) | ?
COc1cc(-c2ccnc3nc(-c4ccco4)nn23)cc(OC)c1OC | 1%
CC(=O)N1CCN(CC[C@H]2CN(C(=O)Cc3ccccc3)CC[C@H]2CC(=O)O)CC1 | -4%[70.6 µM]
CN1C(=O)c2cccn2CC1CNS(=O)(=O)c1ccc(F)cc1 (configuration not stated) | 0%
CC(=O)Nc1ccc(CNC[C@H]2COCc3nc4ccc(C)cc4n32)cc1 | -3%[70.6 µM]
CN(C)CC1(O)CCCN(Cc2c(Cl)cncc2Cl)C1 (configuration not stated) | -1%
O=C1C[C@@H]2CCN(Cc3ccccc3)C[C@@H]2CCN1C1CCCCC1 | 0%[70.6 µM]
COCCNC(=O)[C@@H]1C[C@H](Oc2ccccc2)CN1C(=O)c1ncoc1-c1cccc(C)c1 | 5%
O=C1CC2CCCC(C1)N2C(=O)c1cc(F)ccc1Br | 2%[70.6 µM]
Cc1cc(C(=O)N2C[C@@H](COCC3CC3)[C@H](c3ccncc3)C2)c(C)o1 | -3%
CCC(CC)NC(=O)C1Cn2cccc2C(=O)N1CC(C)C (configuration not stated) | 12%
CN(Cc1ccnc2ccccc12)C(=O)c1cn(Cc2ccc(Cl)cc2)nn1 | 10µM*
O=C(Nc1ccc(-c2nnc3n2CCCC3)cc1)c1ccccc1 | -5%
COc1cc2c(cc1NC(C)=O)C(c1ccc(Oc3ccccc3)nc1)CC(=O)N2 (configuration not stated) | 3%
CN(CC1CCOC1)C(=O)Nc1ccccc1 (configuration not stated) | 4%
CC(C)N1CCC(CCN2C(=O)[C@H]3CN(S(=O)(=O)c4cn(C)cn4)C[C@H]3C2=O)CC1 | -3%
Cc1ccc(CC(=O)N2CCC(Cc3nc(-c4ccccc4)no3)CC2)cc1 | ?
Cc1noc(C)c1S(=O)(=O)N1CCc2nn(C)c(=O)n2CC1 | 14%
COc1cccc(NC(=O)C2CC(=O)N(c3n[nH]c4cc(Br)ccc34)C2)c1 (configuration not stated) | -11%
COC(=O)N1CCC2(C1)OC(=O)Nc1ccccc12 (configuration not stated) | 3%[70.6 µM]
COc1cncc(Nc2ncc(-c3c(C)noc3C)c3c2OCC3)c1 | -2%[70.6 µM]
CN(C)CC1(O)CCC2(CCN(C(=O)C3CCCC3)CC2)CC1 | 2%
O=C(NCc1cccnc1)C1CCC(=O)N(CCCN2CCCC2=O)C1 (configuration not stated) | 4%

Next results follow.
SMILES | hNpr1 antagonist
COCc1nc(-c2ccc(OC3CN(C(=O)NC(C)C)C3)cc2)no1 | 13µM*
O=[S+]([O-])(c1cccs1)N1CCC2(CC1)CC(Cc1ccccc1)=NO2 | -30%
CCc1nc2c(c(-c3ccc(O)cc3)n1)CCN(Cc1cccc(C(F)(F)F)c1)CC2 | ?
COc1ccc(-c2ccnc(N[C@H]3CO[C@H]4[C@@H]3OC[C@@H]4NS(=O)(=O)c3ccc(NC(C)=O)cc3)n2)cc1 | ?
CCOc1ccccc1NC(=O)N1CCC[C@H]1C(=O)N1CCCCCCNC(=O)CC1 | 0%
O=C(NCc1ccccn1)c1nc(-c2cccnc2)c2ccccn12 | 2%[70.6 µM]
CC(C)CNC(=O)C1COC2(CCCCC2)N1C(=O)c1cccc(Cl)c1 (configuration not stated) | 3%
O=C(Cc1cccc(F)c1)NCCn1ccn2nc(-c3ccc(F)cc3)cc2c1=O | -16%
CN1C(=O)C(c2ccccc2)CC12CCN(C(=O)c1cccc(F)c1)CC2 (configuration not stated) | 1%
COc1ccc(CC2CCN(C(=O)c3c(C)noc3-c3ccc4c(c3)OCO4)CC2)cc1 | ?
COc1cc2c(cc1CN1CCCC(CO)(CC=C(C)C)C1)OCCO2 (configuration not stated) | 4%
CC[C@H]1CN(C(=O)c2ccc(F)cc2)CC[C@H]1CC(=O)NCc1ccccc1OC | -2%[70.6 µM]
COCC(=O)N1CC(C(=O)NCc2cccc(F)c2)CC(c2ccc(F)c(C)c2)C1 (configuration not stated) | 0%
CN(Cc1cn(-c2ccccc2)nn1)Cc1cnc2ccccn12 | ?
COCCOCC(=O)N1CCCC(c2nc(-c3cccnc3)no2)CCNC(=O)CC1 (configuration not stated) | 3%
O=C(O)COCC(=O)N[C@H]1CCN2C(=O)c3cc(-c4ccsc4)ccc3NC(=O)[C@H]12 | -1%[70.6 µM]
O=C(CN1CC2CC(C1)[C@H]1CCCC(=O)N1C2)NCCCc1ccccc1 (some centres not stated) | 1%
COc1cccc(Nc2nc(-c3ccccc3)no2)c1 | 8.9µM*
CCOc1ccccc1CN1CCN(Cc2nccn2CC)CC1CCO (configuration not stated) | 0%
Cc1nc(N2CCCn3nc(CO)cc3C2)c(Cl)c(=O)[nH]1 | 2%
COc1ccc(-c2nnc3ccc(N4CCC(c5ccccc5)CC4)nn23)nc1 | 5%[70.6 µM]
Cc1noc(-c2cn(C3CCN(C(=O)c4cc(F)ccc4F)CC3)nn2)n1 | 15%
Nc1n[nH]c(C(=O)N2C[C@@H](C(=O)O)[C@H](C3CC3)C2)c1Cl | -1%
COCCc1noc(CC2CCOC3(CCN(Cc4cccc(OC)c4OC)CC3)C2)n1 (configuration not stated) | 4%
Cc1cn2nc(C(=O)N3CCC(NC(=O)c4ccc(F)c(F)c4)CC3)cc2c(=O)[nH]1 | 7%

In the list so far, these contain a thiophene ring, fused or not:
SMILES | hNpr1 antagonist
O=C(NCc1ccsc1)C1CN(c2cccc(Cl)c2)C(=O)N1 (configuration not stated) | -3%[70.6 µM]
CC(c1cccs1)N(C)Cc1cccc2ccccc12 (configuration not stated) | 19%[70.6 µM]
CN1CCCN(C(=O)Cc2cccs2)c2ccccc21 | -7%
O=[S+]([O-])(c1cccs1)N1CCC2(CC1)CC(Cc1ccccc1)=NO2 | -30%
O=C(O)COCC(=O)N[C@H]1CCN2C(=O)c3cc(-c4ccsc4)ccc3NC(=O)[C@H]12 | -1%[70.6 µM]

The main list resumes with the 5 entries that preceded the break.
SMILES | hNpr1 antagonist
COc1ccc(-c2nnc3ccc(N4CCC(c5ccccc5)CC4)nn23)nc1 | 5%[70.6 µM]
Cc1noc(-c2cn(C3CCN(C(=O)c4cc(F)ccc4F)CC3)nn2)n1 | 15%
Nc1n[nH]c(C(=O)N2C[C@@H](C(=O)O)[C@H](C3CC3)C2)c1Cl | -1%
COCCc1noc(CC2CCOC3(CCN(Cc4cccc(OC)c4OC)CC3)C2)n1 (configuration not stated) | 4%
Cc1cn2nc(C(=O)N3CCC(NC(=O)c4ccc(F)c(F)c4)CC3)cc2c(=O)[nH]1 | 7%
COc1cccc(NC(=O)c2ccnc(-c3nnc4ccc(Nc5ccccc5)nn34)c2)c1 | -26%
O=C(NC1CCN(c2cc(-c3ccc(Cl)cc3)[nH]n2)CC1)c1ccc2c(c1)OCO2 | -1%
COc1ccc(-n2nc(C3CCN(C(=O)Cc4cccc(Cl)c4)CC3)[nH]c2=O)cc1 | 5%
CCOc1cc(=O)n2c(c1C(=O)Nc1ccccc1F)CCCC2 | 2%
CCc1ccc(NC(=O)Cn2ccn3nc(-c4ccccc4)c(CO)c3c2=O)cc1 | 1%
CCc1cccc(NC(=O)N2CCC(c3noc(COc4ccc(F)cc4)n3)CC2)c1 | ?
CN1C(=O)[C@@H]2C[C@@H](CN2Cc2ccccc2)Oc2ccccc21 | -2%[70.6 µM]
CC(=O)N1CCC(Oc2ccc(Cl)cc2C(=O)N2CCN(CC3CC3)CC2)CC1 | 3%
CCC(=O)N1CCc2ccc(C(=O)NC3CC3)cc21 | 2%
Cc1nccn1CCN(C)Cc1cc2n(n1)CCNC2 | -1%
COc1ccc(CN2CCc3oc(C)c(C(=O)NCc4cccnc4)c3C2)cc1 | 2%
O=C(O)Cn1ccc2cc(OCc3cccc(-c4ccc(F)c(Cl)c4)c3)cnc21 | 1%[70.6 µM]
O=C(c1cnccn1)N1CCc2[nH]nc(C(c3ccccc3)c3ccccc3)c2C1 | -1%
COc1cccc(OCc2nc3c(n2Cc2ccccc2)C(=O)N(Cc2cccc(Cl)c2)CCN3)c1 | -15%
CN1C(=O)CCC2(CNC(=O)Nc3ccccc3)CCC=C12 (configuration not stated) | 3%
Cc1ccc(C)c(S(=O)(=O)N2CC(c3nc(Cc4ccccc4)no3)C2)c1 | -4%
CC1=C[C@@H](CNC(=O)c2cnccn2)[C@H](C(C)C)C[C@H]1Cc1nnc(-c2ccccc2F)o1 | -22%
CCC1Oc2ccc(NC(=O)Cc3cccc(OC)c3)cc2CN(Cc2ccc3c(c2)OCO3)C1=O (configuration not stated) | -22%
O=C1CCC2(CNC(=O)C3CCOCC3)CCCC=C2N1 (configuration not stated) | -7%
Cc1ccc(-c2nnc(C3CN(C(=O)c4ccccc4C)CC34CCOCC4)o2)cc1 (configuration not stated) | 1%
O=C(CC1CCCC1)NC1CCCN(c2cc(N3CCCC3)ncn2)C1 (configuration not stated) | -9%
CC(C)CN1C(=O)CO[C@H](c2ccc(NC(=O)c3ccc(C(F)(F)F)cc3)cc2)[C@H]1CO | 13µM*
c1ccc(CN2CC[C@H](c3nnc(-c4ccncc4)o3)C2)cc1 | 5%[70.6 µM]
O=C1N(CC2CC2)CCOC12CCN(Cc1ccc(F)c(Cl)c1)CC2 | -13%[70.6 µM]
Cc1cccc(OCCc2noc(C3CCNC3)n2)c1 (configuration not stated) | -8%

New compounds follow.
SMILES | hNpr1 antagonist
COc1ccc(NC(=O)c2ccc(Cn3ccn4nc5c(c4c3=O)CCCC5)cc2)cc1OC | -4%
OCc1cccc(-c2ccc3ncc(Nc4cccnc4)n3n2)c1 | 2%[70.6 µM]
COCc1ncc(C)n1CCNC(=O)c1cc(-c2cccc(Cl)c2)n[nH]1 | 2%
COc1ccc(OC)c(NC(=O)Cn2c(N3CCc4ccccc4C3)nc(C)cc2=O)c1 | ?
COc1cccc(C(=O)N2CCC(c3n[nH]c(=O)n3-c3ccc(C)cc3)CC2)c1 | 3%
NCCC(=O)N1CCC(n2nccc2NC(=O)Nc2ccccc2Cl)CC1 | 2%
CCCc1noc(-c2ccn3c(CNC(=O)c4cccc(Cl)c4)nnc3c2)n1 | 5%
Cc1nc(-c2cn(C3CCCN(C(=O)c4sccc4C)C3)nn2)no1 (configuration not stated) | 2%
O=C(Nc1ccc2[nH]ccc2c1)C1=NO[C@@H]2CN(c3ccccn3)C[C@H]12 | -15%[70.6 µM]
CC(C)CN1C(=O)c2cccn2CC1C(=O)NCC1CC1 (configuration not stated) | 0%
O=C1[C@H]2CN(Cc3ccc(F)cc3)C[C@H]2C(=O)N1CCN1CCc2ccccc2C1 | -7%
COc1ccccc1N1CCN(C(=O)C[C@@H]2C[C@@H](C(C)C)[C@H](CC#N)C=C2C)CC1 | -18%[70.6 µM]
CNC(=O)[C@@H]1CN(C(=O)Cn2c(=O)oc3ccccc32)C[C@H]1COC | -6%
Cn1cc(-c2cc3c(ccn3C)c(C(=O)NCCc3cnc[nH]3)n2)cn1 | -2%[70.6 µM]
COc1cccc(NC(=O)Cc2c[nH]c3ncc(-c4cccnc4OC)cc23)c1 | ?
Cc1cnccc1NCCNc1ncncn1 | 7%
O=C(Cc1cccc(Cl)c1)N1CCC2(CC1)CC(O)CCO2 (configuration not stated) | -12%

Not all compounds are listed; rates above refer to the full screens.
